Screens: PubChem, National Center for Advancing Translational Sciences (NCATS)
D3 ag = agonists of human D3 dopamine receptor. max activation, %. 410,000 tested, 0.58% active. P35462. AID 652048. D3R DiscoveRx beta-arrestin cells, luminescence, 90 min; in the data active = max activation above about 30%; note: 0% is about no effect; mostly tested at two doses, the higher about 12 µM
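Agonist-mode cell screen: cells plated at 1500/well and incubated overnight at 37 °C, then exposed to library compounds for 90 min at 37 °C. Detection reagent was added for 30–60 min at room temperature, and luminescence was read.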
DRD3 antagonist = antagonists of human D3 dopamine receptor. 360,000 tested, 2.5% active. P35462. max response, negative = inhibition, %. D3R cells, DiscoveRx beta-arrestin luminescence, antagonist mode; hits give low values; in the data active = max response below about -50%; inconclusive = no clear call, values can overlap the other calls; note: % is set by controls: 0 for no effect and ±100 for the full control effect; mostly tested at two doses, the higher about 12 µM
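Cells plated overnight at 1500 cells/well, then exposed to library compounds with dopamine controls for 90 minutes at 37 degrees C. DiscoveRx reagent added for 30–60 minutes at room temperature; luminescence read, quantitative HTS format.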
PTHR1 agonist = activates the human parathyroid hormone receptor PTHR1; Q03431; HEK293 GP2 PTHR1 cells, GloSensor cAMP luminescence, 1 h; Potency, µM (top dose mostly 115 µM), for inactives: top-dose activation, hits mostly activators; 410,000 tested, 0.075% active; AID 743266; note: potency is the fitted concentration of half-maximal effect; nearly all actives have a fitted effect of over 55% in size; some results filed as inactive show a strong effect at the top dose; inactives centre near -15; many of its hits are not listed in these tables
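HEK-293-derived GP2 cells expressing PTHR1 and a GloSensor cAMP reporter, 3,000/well, plated overnight, given luciferin plus IBMX (each 0.5 mM as added) for 1 h at 37 °C, then compound for 1 h at 37 °C. Luminescence was read after 15 min at room temperature.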
EPAC2 ag = agonists of human EPAC2 (RAPGEF4) | Q8WZA2 | EPAC2 activation, biochemical qHTS; response scale: 100% = 6.5 mM cAMP response | Potency, µM (top dose mostly 154 µM), for inactives: top-dose activation, most hits filed as activators | 360,000 tested, 0.079% active; note: potency is the fitted concentration of half-maximal effect; nearly all actives have a fitted effect of over 50% in size
Target sequence (Q8WZA2 whole entry, looked up): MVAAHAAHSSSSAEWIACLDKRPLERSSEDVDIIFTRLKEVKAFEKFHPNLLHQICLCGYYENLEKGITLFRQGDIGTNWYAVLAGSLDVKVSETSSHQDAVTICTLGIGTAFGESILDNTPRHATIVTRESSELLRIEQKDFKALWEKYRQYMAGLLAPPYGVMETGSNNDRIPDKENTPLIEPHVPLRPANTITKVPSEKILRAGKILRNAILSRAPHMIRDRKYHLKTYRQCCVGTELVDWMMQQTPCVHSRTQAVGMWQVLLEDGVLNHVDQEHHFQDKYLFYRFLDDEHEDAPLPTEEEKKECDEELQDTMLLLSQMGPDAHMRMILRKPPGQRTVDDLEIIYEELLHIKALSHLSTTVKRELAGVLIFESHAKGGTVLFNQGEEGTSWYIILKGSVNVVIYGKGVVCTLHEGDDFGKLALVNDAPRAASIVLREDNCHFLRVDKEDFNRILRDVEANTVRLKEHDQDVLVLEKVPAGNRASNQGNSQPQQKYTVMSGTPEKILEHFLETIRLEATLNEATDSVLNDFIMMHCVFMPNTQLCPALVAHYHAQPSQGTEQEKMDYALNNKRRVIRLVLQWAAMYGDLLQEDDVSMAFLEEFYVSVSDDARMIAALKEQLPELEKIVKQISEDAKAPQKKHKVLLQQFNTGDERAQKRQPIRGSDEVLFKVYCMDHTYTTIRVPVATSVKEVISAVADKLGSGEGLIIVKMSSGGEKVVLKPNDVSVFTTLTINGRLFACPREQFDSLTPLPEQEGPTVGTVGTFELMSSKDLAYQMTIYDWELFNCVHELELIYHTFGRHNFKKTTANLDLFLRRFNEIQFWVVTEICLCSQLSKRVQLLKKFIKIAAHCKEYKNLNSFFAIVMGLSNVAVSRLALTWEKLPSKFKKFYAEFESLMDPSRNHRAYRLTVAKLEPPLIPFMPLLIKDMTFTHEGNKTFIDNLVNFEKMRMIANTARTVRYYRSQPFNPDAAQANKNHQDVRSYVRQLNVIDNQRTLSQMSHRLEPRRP
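Setup: EPAC2 100 nM, labeled Rap1B complex 250 nM, free GDP 50 uM. Compound titrations pinned in, brief spin, 5 min room temperature incubation. Kinetic fluorescence read over 30 min, normalized to 6.5 mM cAMP.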
EPAC2 antag = antagonists of human EPAC2; Q8WZA2; EPAC2 GEF exchange of Rap1B-BODIPY-GDP, fluorescence; 360,000 tested, 0.18% active; AID 720708; Potency, µM (top dose mostly 114 µM), for inactives: at the top dose activity, negative = inhibition, usual class: inhibitors; note: potency is the fitted concentration of half-maximal effect; % is set by controls: 0 for no effect and ±100 for the full control effect; nearly all actives have a fitted effect of over 45% in size; many of its hits are not listed in these tables
The depositor's hits bear a star; i = inactive; ? = inconclusive; [ ] = another dose, or the depositor's remark. Unless noted, calls come from the whole dose curve; as a rule, active = well fitted curve in the direction sought with a large enough effect; inconclusive = small, poorly fitted or top-dose-only effect, or another doubt; inactive = no such curve, though single readings can be large; an effect the other way counts as inactive or inconclusive. The list is partial. The share of hits here may be higher or lower than overall.

No.	canonical_smiles	EPAC2 ag	EPAC2 antag	DRD3 antagonist	PTHR1 agonist	D3 ag
1	Cc1nc(COc2ccccc2Cl)sc1-c1ccnc(N)n1	6.7%	-3.1%	4.7	-42.2%	6.6
2	Cc1nc(=O)c(-c2ccccc2)c(C)n1-c1ccc(O)c(C(=O)O)c1	11.0%	-4.3%	-29.3	i	3.1
3	O=C(COc1ccc(Cl)cc1Cl)Nc1noc2ccccc12	2.7%	-0.2%	-25.6	-19.9%[57.5 µM]	-3.1
4	O=c1ccc2cccc([N+](=O)[O-])c2[nH]1	1.5%	-2.3%	0.0	-17.4%	-8.8
5	O=C1Cc2c([nH]c3ccc(Br)cc23)-c2ccccc2N1	8.0%	-3.2%	10.4	-87.8%[inhibitor]	0.2
6	CC1(C)CC(=O)C2=C(C1)Nc1cc(Cl)ccc1S2	-0.4%	12.5%	13.9	i	30.7*
7	COc1cc2c(cc1OC)C1C(=O)c3cc(OS(C)(=O)=O)c(OC)cc3C1N(C)C2=O (stereo unspecified)	1.7%	14.5%	?	i	-23.5
8	O=C1Nc2ccccc2Nc2ccccc21	10.6%	1.4%	-16.1	-13.2%	-23.8
9	Clc1ccc(CNc2ccc3nnc(-c4ccccc4)n3n2)cc1	10.6%	6.9%	-23.2	-32.5%[inhibitor]	-6.2
10	CC(=O)Oc1ccc(-c2cc3ccc(OC(C)=O)cc3oc2=O)cc1	3.1%	0.2%	4.9	i	6.0

From compound 1 to 9, copied from above:
No.	canonical_smiles	EPAC2 ag	EPAC2 antag	DRD3 antagonist	PTHR1 agonist	D3 ag
1	Cc1nc(COc2ccccc2Cl)sc1-c1ccnc(N)n1	6.7%	-3.1%	4.7	-42.2%	6.6
2	Cc1nc(=O)c(-c2ccccc2)c(C)n1-c1ccc(O)c(C(=O)O)c1	11.0%	-4.3%	-29.3	i	3.1
3	O=C(COc1ccc(Cl)cc1Cl)Nc1noc2ccccc12	2.7%	-0.2%	-25.6	-19.9%[57.5 µM]	-3.1
4	O=c1ccc2cccc([N+](=O)[O-])c2[nH]1	1.5%	-2.3%	0.0	-17.4%	-8.8
5	O=C1Cc2c([nH]c3ccc(Br)cc23)-c2ccccc2N1	8.0%	-3.2%	10.4	-87.8%[inhibitor]	0.2
6	CC1(C)CC(=O)C2=C(C1)Nc1cc(Cl)ccc1S2	-0.4%	12.5%	13.9	i	30.7*
7	COc1cc2c(cc1OC)C1C(=O)c3cc(OS(C)(=O)=O)c(OC)cc3C1N(C)C2=O (stereo unspecified)	1.7%	14.5%	?	i	-23.5
8	O=C1Nc2ccccc2Nc2ccccc21	10.6%	1.4%	-16.1	-13.2%	-23.8
9	Clc1ccc(CNc2ccc3nnc(-c4ccccc4)n3n2)cc1	10.6%	6.9%	-23.2	-32.5%[inhibitor]	-6.2
